BmaI1 – BmaI1 acyl-homoserine lactone synthase inhibition – biochemical, fluorescence intensity, with counterscreen (AID 720554). BmaI1 enzyme assay, fluorescence intensity; stronger effect = higher value; test concentration not given here; a few actives read low; strong numbers were not always called active. inhibition, %. 12,000 compounds, 0.4% hits;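 active = both replicates within 2 robust z-scores of the inhibited control and a quiet counterscreen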;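 also: 0% = uninhibited enzyme and 100% = inhibited control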
BmaI1 counterscreen – recorded beside BmaI1, whose call it bears; inhibition, %; measured here: counterscreen; design of the counterscreen not given here;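 first of two replicates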
Starred values were filed as active, the others as inactive. Only part of the results is shown. The share of hits here may be higher or lower than overall.

Order of values: BmaI1 | BmaI1 counterscreen
O=C(Nc1ccccc1OC(F)F)C12CC3CC(CC(O)(C3)C1)C2
→ 15 | 2
CC(C)N(Cc1nc2ccccc2c(=O)[nH]1)C(=O)c1cccc(C#N)c1
→ 15 | 6
COC(=O)c1c(CSc2nnc(-c3ccc(OC(F)F)cc3)o2)nc2ccccc2c1C
→ 12 | 6
CCCCN1C(=O)c2ccc(C(=O)C(C#N)c3nc4ccccc4n3C)cc2C1=O (centres undefined)
→ 8 | 0
COc1ccc(C)cc1-n1nnnc1SCc1nc2sc3c(c2c(=O)[nH]1)CCC3
→ 9 | -6
Cc1nsc(Nc2ccccc2)c1C#N
→ 10 | 14
Cc1ccc(N=Cc2c(O)n(C)c3ccccc23)cc1
→ 13 | 12
CCOC(=O)c1c(CSc2n[nH]c(=O)n2CC)nc2ccccc2c1C
→ 20 | 8
C/C(=N\NC(=O)NC1CCCCC1)c1ccc(OC(F)F)cc1OC(F)F
→ 24 | 9
Cc1ccc(-c2nn(-c3ccccc3)cc2/C=C/C(=O)OCC(=O)c2c(N)n(C)c(=O)n(C)c2=O)o1
→ 6 | 2
Cc1nnc(NC2=NCCC2)o1
→ 8 | -5
CCN(CC)C(=O)C(N)Cc1ccccc1 (centres undefined)
→ 10 | 4
O=C(Nc1ccc(S(=O)(=O)NC2=NCCCCC2)cc1)C1=NN(c2ccccc2)C(=O)CC1
→ -7 | -15
NC(=O)NC(CC(=O)Nc1ccc(S(N)(=O)=O)cc1)c1ccccc1Cl (centres undefined)
→ 2 | 6
O=C(N/N=C/c1ccc(-n2ccnc2)cc1)c1ccc2c(=O)n3c(nc2c1)CCC3
→ 16 | 26
COC(=O)c1cc(COC(=O)/C=C/c2ccc(F)cc2)oc1C
→ 9 | 7
C#C[C@]1(O)CC[C@H]2[C@@H]3CCc4cc(OC)ccc4[C@H]3CC[C@@]21C
→ -3 | -6
COc1ccc(-n2nnnc2SC(C)C(=O)Nc2ccc(S(=O)(=O)N3CCOCC3)cc2)cc1 (centres undefined)
→ -8 | -6
O=C(CN1CCN(c2ccc(O)cc2)CC1)N(C1CCCCC1)C1CCS(=O)(=O)C1 (centres undefined)
→ 70 | 29
CCC(C)NCCOc1ccc(Cl)c(Cl)c1 (centres undefined)
→ 14 | 14

Of the compounds above, six contain a halogen.
Order of values: BmaI1 | BmaI1 counterscreen
O=C(Nc1ccccc1OC(F)F)C12CC3CC(CC(O)(C3)C1)C2
→ 15 | 2
COC(=O)c1c(CSc2nnc(-c3ccc(OC(F)F)cc3)o2)nc2ccccc2c1C
→ 12 | 6
C/C(=N\NC(=O)NC1CCCCC1)c1ccc(OC(F)F)cc1OC(F)F
→ 24 | 9
NC(=O)NC(CC(=O)Nc1ccc(S(N)(=O)=O)cc1)c1ccccc1Cl (centres undefined)
→ 2 | 6
COC(=O)c1cc(COC(=O)/C=C/c2ccc(F)cc2)oc1C
→ 9 | 7
CCC(C)NCCOc1ccc(Cl)c(Cl)c1 (centres undefined)
→ 14 | 14

The list continues.
Order of values: BmaI1 | BmaI1 counterscreen
CNCc1c(C)nn(Cc2ccccc2Cl)c1C
→ 12 | 12
CC(Sc1nnnn1-c1ccccc1)c1nc2scc(-c3ccccc3)c2c(=O)[nH]1 (centres undefined)
→ 19 | 10
CC1CCN(C(=O)COC(=O)c2nn(-c3ccccc3C(F)(F)F)cc2O)CC1
→ -2 | -2
COc1ccc2c(CC(=O)OCc3cc(=O)oc4cc(OC)ccc34)coc2c1
→ 2 | 1
Cc1ccc(Cn2c(=O)c3ccccc3n3c(SCC(=O)OC(C)(C)C)nnc23)cc1
→ 16 | 7
O=C(COC(=O)c1cccc(N2C(=O)c3ccccc3C2=O)c1)NCc1ccco1
→ 9 | 0
CC(C)[C@H](N)C(=O)OCCOCn1cnc2c(=O)[nH]c(N)nc21
→ -5 | 0
COC(=O)C(NC(=O)c1cccnc1Cl)C(C)C (centres undefined)
→ 2 | 5
COc1ccc(Br)cc1CN(C)CC(O)COCc1ccc2c(c1)OCO2 (centres undefined)
→ 14 | 12
Cc1noc(C)c1CC(=O)Nc1cccc(-n2cnnn2)c1
→ 12 | 7
S=c1[nH]nc(SCc2cccs2)s1
→ 91 | 48
CC1CCCC(NCC(=O)Nc2ccc(C(N)=O)cc2)C1C (centres undefined)
→ 10 | 2
CSc1nc2ccc(NC(=O)C(C)(C)C)cc2s1
→ 8 | 1
CC(=O)NC(CC(=O)N1CCN(S(=O)(=O)c2ccc(C)cc2)CC1)c1ccccc1 (centres undefined)
→ 21 | 8
CC(C)[C@H](NC(=O)c1ccccc1)C(=O)Nc1ccc2c(c1)OCO2
→ 16 | 11
O=C1CCC(C(=O)N2CCc3ccccc32)=NN1
→ 4 | -2
COCCCN1C(=Nc2cccnc2)SCC1(O)c1ccccc1 (centres undefined)
→ 10 | 8
Cc1ccc2cc(CN3CCN(C)CC3)c(Cl)nc2c1C
→ 22 | 14
Cc1ccc2c(CN3C(=O)CCC3=O)cc(=O)oc2c1
→ 9 | 4
Cc1ccc(-n2c(O)c(/C=N/c3ccnn3Cc3ccco3)c3ccccc3c2=O)cc1
→ 10 | 12
Cc1ccc(S(=O)(=O)N2CCC[C@H]2C(=O)OCN2C(=O)c3ccccc3C2=O)cc1
→ 15 | 16
O=C(CNC(=O)C12CC3CC(CC(C3)C1)C2)OCc1nnc(-c2ccccc2)o1
→ 23 | 10
N#Cc1ccc(COC(=O)C2CCC(=O)N2)cc1 (centres undefined)
→ 6 | 6
CN(CC1COc2ccccc2O1)C(=O)c1ccc2[nH]c(=O)c(=O)[nH]c2c1 (centres undefined)
→ 10 | 0
Cc1[nH]n(-c2ccccc2)c(=O)c1CCC(=O)O
→ 17 | -3
CC(C)C(NC(=O)c1ccc(Cl)nc1)c1ccc2c(c1)OCCCO2 (centres undefined)
→ 16 | 8
CN(C)S(=O)(=O)c1cccc(COC(=O)c2cn(-c3ccccc3)nc2-c2cccs2)c1
→ 8 | -2
CC(C)N(Cc1nnc(-c2ccccc2Cl)o1)C(=O)CCN1C(=O)NC2(CCCC2)C1=O
→ 10 | 8
CCOC(=O)c1cncn1[C@H](C)c1ccccc1
→ 8 | 4
O=C(NCc1ccc(F)cc1)c1ccc(S(=O)(=O)N2CCCC2)cc1
→ -23 | -1
N#C/C=N/N(c1ccccc1)c1ccccc1
→ 18 | 8
COc1cccc(-c2nnn(CC(=O)N3CCCC3)n2)c1
→ 0 | 0
CN(C)C(CNC(=S)NC1CC1)c1ccccc1 (centres undefined)
→ 6 | 11
O=C(COC(=O)Cc1cccs1)Nc1ccccc1
→ 17 | 4
O=C(COc1ccc(Cl)cc1)Oc1cc(=O)[nH]c2ccccc12
→ 6 | 0
CN1CCN(/C=C2\C(=O)N(c3ccc(Cl)cc3)C(=O)c3ccccc32)CC1
→ -2 | -6
CC1CN(CC(=O)N2CCNC2=O)CC(C)O1 (centres undefined)
→ 6 | 2
O=S(=O)(c1ccc2c(c1)CCCN2)N1CCCCC1
→ 14 | -4
O=C(COC(=O)C1CCN(S(=O)(=O)c2ccc3c(c2)OCCO3)CC1)c1ccc(Cl)s1
→ 12 | 0
CCOc1ccc(S(=O)(=O)N2CCN(C(=O)C3COc4ccccc4O3)CC2)cc1 (centres undefined)
→ 16 | 4
Cc1cc(C(=O)NC2CCCCCC2)no1
→ 2 | 0
Cc1csc(=O)n1CCOC(=O)c1ccc2[nH]c3c(c2c1)CCCC3
→ 30 | -2
CC1CC(C)CN(CC(C)(C)NS(=O)(=O)c2ccc(Cl)cc2)C1 (centres undefined)
→ 4 | 11
NNC(=O)CSc1n[nH]c(=O)[nH]c1=O
→ -20 | -40
CCc1nnc(NC(=O)CCN2C(=O)NC3(CCCC3)C2=O)s1
→ 16 | 14
O=c1c2ccccc2cnn1-c1nc2ccccc2[nH]1
→ 12 | 2
O=C(CSc1nnc(-c2cccs2)n1CC1CCCO1)c1ccc2[nH]c(=O)oc2c1 (centres undefined)
→ 9 | 0
Cc1ccccc1-n1c(SCc2nc(N)nc(N)n2)nc2sc3c(c2c1=O)CCCCC3
→ 8 | 4
CC(OC(=O)c1ccccc1NCc1ccco1)C(=O)Nc1ccc(Cl)cn1 (centres undefined)
→ 8 | 2
COC(=O)c1ccc(NC(=O)CNC(C)(C)CO)cc1
→ 6 | 5
O=C(Cc1ccsc1)Nc1ccc(-n2cnnn2)cc1
→ 12 | 7
NC(=O)c1ccccc1OCC(=O)N1CCCc2ccccc21
→ 23 | 52
S=c1[nH]nc(Nc2cccc(Br)c2)s1
→ 106 | 52
CCCCc1nc2ccccc2n1CC(=O)NC1=NCCS1
→ 8 | -1
Cc1ccc(C)n1NC(=O)c1ccc(Oc2ncnc3sccc23)cc1
→ 29 | 3
CC(C)CCC(=O)O
→ 4 | 4
CN(C1CCCCC1)S(=O)(=O)c1ccc(NC(=O)C2COc3ccccc3O2)cc1 (centres undefined)
→ 4 | 0
N#Cc1ccc(COC(=O)c2cccnc2N2CCOCC2)cc1
→ 12 | 5
NC(=O)c1cccnc1
→ 62 | 20
NCC(c1ccccc1)c1ccccc1
→ 10 | 10

Next section:
Order of values: BmaI1 | BmaI1 counterscreen
O=C(Nc1ccc2c(c1)CCC2)c1ccc(Cl)nc1
→ 13 | 10
CCC(c1nnc(SCc2ccc(C(=O)OC)o2)n1Cc1ccccc1)N(C)C (centres undefined)
→ 4 | 2
CC(CCc1ccccc1)NC(=O)COc1ccc(-c2nnco2)cc1 (centres undefined)
→ 8 | -4
CCN(C(=O)COc1ncnc2sc(-c3ccccc3)cc12)C1CCS(=O)(=O)C1 (centres undefined)
→ 9 | 6
Cc1nn(-c2ccccc2)c2c1C(c1ccccc1)N1C=C(S(=O)(=O)N3CCCCC3)C=CC1=N2 (centres undefined)
→ 10 | 0
CC1=C(C(=O)Nc2ccccc2)C2(CCCCC2)C(C#N)=C(S)N1
→ 14 | -1
O=C(COc1c(F)c(F)cc(F)c1F)c1ccc2c(c1)OCCO2
→ 19 | 13
O=C1CN(C(=O)Cc2ccc(S(=O)(=O)N3CCCCC3)cc2)c2ccccc2N1
→ 36 | 8
CCn1cc(/C=C2/C(=O)N(c3ccccc3)N=C2C)c2ccccc21
→ 19 | 14
C=CCn1c(C)cc(-c2csc(NCc3ccccc3)n2)c1C
→ 13 | 0
Cc1ccc(S(=O)(=O)N2CCN(CCOC(=O)c3ccccc3)CC2)cc1C
→ 6 | 1
Cc1cc(C(=O)CSc2ncccn2)c(C)n1Cc1ccccc1
→ 8 | 13
O=C(OCC(=O)c1ccc[nH]1)c1ccc(-n2cnnn2)cc1
→ 8 | 4
CN=C(Nc1ccc(C(=O)OC)cc1)c1ccccc1
→ 15 | 6
Nn1c(SCC(=O)Nc2ccc(S(=O)(=O)N3CCCC3)cc2)nnc1-c1ccccc1
→ 72 | 14
NNc1ccc2nc3ccccc3c(=O)n2n1
→ 79 | 5
CC(Sc1nnc(-c2ccc3c(c2)OCO3)o1)C(=O)N1CCc2ccccc2C1 (centres undefined)
→ 4 | -1
CC1CCCC(C)N1C(=O)Cn1nc(C(=O)O)c2ccccc2c1=O (centres undefined)
→ 13 | 6
CCNC(=O)/C=C/c1ccc(Cl)c(Cl)c1
→ 4 | 4
CC(C)NC(=S)N1CCN(S(=O)(=O)c2cccc(C(F)(F)F)c2)CC1
→ 2 | 10
CSC(=S)N(C=O)c1ccc(C)cc1
→ 2 | 7
CN=c1scc(-c2ccccc2)n1/N=C/c1ccsc1
→ 6 | -7
Oc1ccc2ccccc2c1CN1CCCC(C(F)(F)F)C1 (centres undefined)
→ 3 | 10
O=C(COC(=O)c1cc2c(s1)CCC2)Nc1nccs1
→ 12 | 6
CCCCCCNC(=O)n1cc(F)c(=O)[nH]c1=O
→ 0 | -1
COC(=O)c1ccc(NC(=O)CN(C)Cc2cccc(F)c2)cc1
→ 12 | 3
O=C1C2CCCC1CC(C(=O)N1CCN(c3ccccc3Cl)CC1)C2 (centres undefined)
→ 24 | 8
Cc1ccc(CN(C)C(=O)COc2ccccc2-c2ccccc2)o1
→ 24 | -4
CN(CC(=O)Nc1ccc(Cl)cc1)C1CCCCN(C(=O)c2ccc(F)cc2)C1=O (centres undefined)
→ 15 | 16
Cn1cnnc1SCc1nc2ccccn2c1Br
→ 10 | 5
COc1ccc(-n2c(SCc3nc4ccccc4s3)nc3ccccc32)cc1
→ 20 | 16
CSc1ccccc1NC(=O)CN(C)C(=O)c1cnn(-c2ccccc2)n1
→ 6 | 0
Cc1ccc(C(=O)C(C)Sc2nnnn2C)cc1 (centres undefined)
→ -8 | -3
O=C1CCCN1CCCNS(=O)(=O)c1cccc(Br)c1
→ 4 | 11
CCOc1cc(N)c(Cl)cc1C(=O)NCC1CN(Cc2ccc(F)cc2)CCO1 (centres undefined)
→ 8 | 10
Cc1cc(CNCC2CCCCC2)c(C)n1-c1nccs1
→ 14 | 16
CCOC(=O)N1CCN(Cn2nnc3ccccc3c2=O)CC1
→ 6 | 0
CN(Cc1ccccc1)C(=O)CSc1nnnn1C
→ 2 | 6
C/C(N)=C(/C#N)C(=O)CSc1nc2nc(C)cc(C)n2n1
→ 6 | -3
Cc1cc(/C=N/N=C2\C(=O)Nc3ccccc32)c(C)n1CC(C)C
→ 42 | 6
N#CCn1c(CSc2nnc(COc3ccccc3Cl)n2C2CC2)nc2ccccc2c1=O
→ 6 | 2
COc1ccc2c(c1)CC/C(=C/c1cccc(O)c1)C2=O
→ -18 | 4
CC1CC(C)CN(S(=O)(=O)c2ccc(C(=O)NC(C)(C)C)cc2)C1 (centres undefined)
→ -11 | 4
CCn1c(N)c(-c2csc(Nc3ccc(F)c(Cl)c3)n2)c(=O)[nH]c1=O
→ 60 | 23
CCN(CC(=O)Nc1ccccc1C(=O)c1ccccc1)CC(=O)NC1CCS(=O)(=O)C1 (centres undefined)
→ 1 | -1
CC(C)c1ccc(C#N)cc1
→ -8 | -11
ONC1=NCCCCC1
→ 84 | 16
CCn1c(CSC/C=C/c2ccccc2)nc2cc(S(=O)(=O)N3CCOCC3)ccc21
→ 8 | -2
Cc1ccc(CSc2nnc(-c3ccc(C)cc3)n2N)cc1
→ 14 | 2
O=C(COc1ccccc1)OCC(=O)N1CCCc2ccccc21
→ 8 | 6
COCCn1c(C)cc(C(=O)COC(=O)c2cc(OC)c(OC)cc2OC)c1C
→ 0 | 4
